Sa RN4220 lethal: S. aureus RN4220 growth inhibition; OD600, 16 h; inhibition, % (no concentration beside the values); actives 0.33% (n = 330,000); AID 1259311;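 active = z-score of -3 or lower and OD600 up to 0.18 on both plates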;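 also: plate controls were untreated cells for no effect and reference antibiotic for full effect; stock transfer was 100 nL into about 80 µL; one replicate is shown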
BJeLR viability: BJeLR cell viability loss. BJeLR (HRASV12) viability, CellTiter-Glo ATP luminescence, 48 h; reference of the scale not given here. inhibition, % (test concentration not listed). actives 0.17% (n = 300,000). AID 1554;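 active = replicate mean above 50%; inconclusive = above 50% but judged a plate artefact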;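 also: 50 nL library stock added to about 25 µL; numbers are from one replicate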
Mtb hypoxia inh: Mtb hypoxia fluorescent reporter inhibition | M. tuberculosis hypoxia-regulated fluorescent reporter, fluorescence | actives 0.1% (n = 300,000) | fluorescence inhibition, % (no concentration beside the values);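 active = 35 to 45% if threefold the growth effect, above 45% if 1.5-fold the growth effect; inactive = the rest, general growth blockers included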;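 also: wells of about 50 µL received 100 nL stock; 0% = vehicle wells and 100% = reference inhibitor wells; whole bacteria with a GFP reporter of the hypoxia response; strong numbers were not always called active; many hits fall short of the cut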
PrP UTR inh: inhibition of PrP 5' UTR reporter expression; actives 0.35% (n = 340,000); inhibition, % (concentration not given with the values); cell-based PrP 5' UTR mRNA reporter, plate reader;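 active = every replicate at 50% or more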;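 also: 0 = median of the neutral control wells; tested in H4 reporter cells; numbers are from one replicate; inactives centre near -14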
Autofluor counter: counter-screen for toxin protease inhibitors: compound fluorescence; compound autofluorescence counterscreen, microsphere flow cytometry; stronger effect = higher value; fluorescence intensity (no concentration beside the values); actives 3.1% (n = 360,000); AID 624483;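 active = at least 3 SD above the mean of all compounds, about 16000 in these data; inconclusive = too few beads counted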;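 also: 100 nL of 1 mM stock went into each well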
Sa ugtP lethal: compounds lethal to S. aureus RN4220 ugtP deletion mutant; OD600 growth, 16 h; some inactives read as strong as hits; growth inhibition, % (test concentration not listed); actives 0.54% (n = 330,000);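 active = z-score under -3 and OD600 up to 0.15 on both plates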;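 also: plate controls were untreated wells for no effect and antibiotic for full effect; wells of about 80 µL received 100 nL stock; the first replicate is given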
Mtb hypoxia inh growth: recorded beside Mtb hypoxia inh, whose call it bears; growth inhibition, %; measured here: M. tuberculosis growth (absorbance);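 0% = vehicle and 100% = reference antibiotic; read after six days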
* = called active by the depositor; u = inconclusive; x = not tested or not shown; & = joins results of further samples.

nr	Compound	Sa RN4220 lethal	BJeLR viability	Mtb hypoxia inh	Mtb hypoxia inh growth	PrP UTR inh	Autofluor counter	Sa ugtP lethal
1	COc1ccc(OC)c(-n2c(=S)[nH]c3cc(C(=O)N4CCN(c5ccccc5)CC4)ccc3c2=O)c1	16	-12	2	7	-19	4404	-9
2	CC(=O)N1CCN(c2ccc(NC(=O)c3ccccc3)cc2)CC1	2.5	-7	15	8	-41	3937	11
3	COc1ccc(/C=C/c2nc(-c3ccccc3O)n(-c3ccccc3)n2)cc1	x	2	x	x	-4	6672	x
4	CCOc1ccc(N(CC(=O)NCc2ccc(C)cc2)S(=O)(=O)c2c(C)[nH]c(=O)[nH]c2=O)cc1	-0.2	-6	6	3	-12	4734	0
5	CCc1ccc(-c2csc(-c3c[nH]c4ccccc34)n2)cc1	-2.2	16	-2	-5	-71	2533	85*
6	O=C(NCC(c1ccco1)N1CCc2ccccc2C1)C(=O)Nc1ccccc1F (configuration not stated)	-2.1	1	-3	0	-13	5688	11
7	O=C(NCCO)c1ccc2[nH]c3ccccc3c2c1	-2.0	-1	x	x	-25	2375	-5
8	Cc1ccc(C(=O)N(C)CC(=O)Nc2cccc(C)c2C)o1	0.6	-2	16	4	-12	4099	0
9	CCCCCCCOC(=O)c1ccc(OC(=O)c2cccnc2)cc1	16	-1	5	-2	-26	10829	80
10	Cc1c(Cl)cccc1NC(=O)NCc1cccnc1	-0.8	5	6	8	-3	6683	-3
11	Cc1ccc(C(C)C)cc1OCCOCCN1CCCC1	1.3	15	x	x	-10	4992	8
12	COc1ccc(C2C(C#N)=C(N=CN3CCN(C)CC3)OC3=C2C(=O)CC(C)(C)C3)cc1OC (configuration not stated)	9.4	x	4	13	x	x	2
13	CCC1Sc2ccc(S(=O)(=O)CCC(=O)Nc3ccc(C(=O)OC)cc3)cc2NC1=O (configuration not stated)	2.6	-7	6	-1	-23	6497	2
14	Cc1ccc(C(=O)n2c3ccccc3c3ccccc32)cc1	-4.7	31	x	x	-49	2492	38
15	C=CCOC(=O)C1=C(C)N=C2SCCC(=O)N2C1/C=C/c1ccccc1 (configuration not stated)	1.7	-4	3	-7	-11	2502	15
16	O=C1C=C(c2cc3ccccc3o2)C[C@@H](c2ccc(F)cc2)C1	0.4	x	2	2	18	4018	1
17	O=C(CN1CCOCC1)NNC(=S)Nc1ccccc1	1.0	2	18	-4	-81	3235	1
18	O=C(CCc1ccccc1)c1ccc2c(c1)OCCCO2	5.4	-3	16	17	-79	19780*	15
19	CCOc1ccc(C(=O)NC(=S)Nc2cccc(NC(=O)c3ccco3)c2)cc1[N+](=O)[O-]	8.3	10	-3	-1	-6	2251	15
20	CCCCc1cc(=O)oc2cc(OCC(=O)N(CC)CC)c(Cl)cc12	-5.9	-1	x	x	-49	5159	10
21	CCOc1ccc(OCC)c(NC(=O)CNS(=O)(=O)c2cccs2)c1	5.9	0	6	6	-43	3798	-9
22	CCN(C(=O)Cn1c(Cl)nc2c1c(=O)n(C)c(=O)n2C)C1CCCCC1	4.0	x	5	-7	-24	3154	6
23	CC1CCN(S(=O)(=O)c2ccc(S(=O)(=O)NCc3ccccc3)cc2)CC1	11	-2	10	4	-18	10471	0
24	COc1cccc(CNCCc2c[nH]c3ccccc23)c1	2.1	-11	5	1	-13	3908	-1
25	CC1(C)CC(C)(c2ccc(O)cc2O)N(c2ccc3ccccc3c2)C(=S)N1 (configuration not stated)	-8.1	x	x	x	-18	2623	29

The list continues.
nr	Compound	Sa RN4220 lethal	BJeLR viability	Mtb hypoxia inh	Mtb hypoxia inh growth	PrP UTR inh	Autofluor counter	Sa ugtP lethal
26	Cc1c(Cl)cccc1NC(=O)CCN1C(=O)NC(C)(C)C1=O	0.3	x	7	11	-12	5884	1
27	CC(C)N1CC=C(c2c[nH]c3ccccc23)CC1	2.8	11	6	8	-8	3367	-2
28	CCOC(=O)N1CCN(C(=O)/C(=C/c2cccs2)NC(=O)c2cccs2)CC1	6.0	-5	-3	14	-18	4693	6
29	Cc1ccc(C(=O)OC(C(=O)O)C(OC(=O)c2ccc(C)cc2)C(=O)O)cc1 (configuration not stated)	0.2	x	5	4	-6	5440	2
30	Cc1cccc(C(=O)NC(C)C(=O)NC(c2nc3ccccc3[nH]2)C(C)C)c1 (configuration not stated)	-4.3	x	-7	-6	-42	3347	8
31	O=C1C2C3C=CC(C3)C2C(=O)N1c1cccnc1 (configuration not stated)	1.5	-4	11	8	-21	10115	6
32	O=C(Cc1ccccc1)NC(=S)Nc1cccc(C(F)(F)F)c1	-11	6	x	x	-21	2456	52
33	COc1cc(C=C2C(=O)c3ccccc3C2=O)cc(OC)c1OC	7.5	1	12	7	-21	4193	2
34	COc1cnc(SCC(=O)O)[nH]c1=O	3.4	-5	5	3	-7	6204	1
35	Cc1ccc(/C=C/C(=O)Nc2ccc([N+](=O)[O-])cc2)o1	6.5	-1	7	9	-58	10090	-5
36	O=C(CSCc1ccc(Br)cc1)Nc1ccc(S(=O)(=O)N2CCOCC2)cc1	-2.2	-3	-6	3	-18	11177	-12
37	Cc1cc(C)cc(-n2c(C)cc(/C=N/NC(=O)c3cccc([N+](=O)[O-])c3C)c2C)c1	x	0	x	x	-13	2960	x
38	COc1cccc(/C=N/NC(=O)C(C)n2nc(C)c([N+](=O)[O-])c2C)c1O (configuration not stated)	x	-6	x	x	-5	2157	x
39	CC(C)CCn1c(SCC(=O)NC2CC2)nc2cc(Cl)ccc2c1=O	-1.4	-7	-11	-9	-6	4501	-1
40	CCOCCCNCC(=O)NC1(C)C2CCC(C2)C1(C)C (configuration not stated)	6.8	9	11	9	-30	2753	-1
41	O=C(NCCCN1CCOCC1)c1cc2c(s1)CCC2	-0.3	-4	x	x	-39	2812	4
42	CC1(C)C[C@@H](O)[C@]2(C)CC[C@]3(C)C(=CCC4[C@@]5(C)CC[C@H](O)[C@](C)(CO)C5CC[C@]43C)[C@@H]2C1 (some centres not stated)	2.7	x	x	x	-20	4039	2
43	Cc1ccc(NC(=O)C2CCCN(S(=O)(=O)c3cccnc3)C2)c(C)c1 (configuration not stated)	3.2	5	-1	-2	-2	5833	0
44	Cc1nc2ccc3nc(NC(=O)C4COc5ccccc5O4)sc3c2s1 (configuration not stated)	9.7	8	2	5	-14	5953	7
45	S=C(NCc1ccco1)Nc1ccc(Br)cn1	2.5	-9	15	23	-13	6139	3
46	CCCNC(=S)N1CCC(C(=O)c2ccc(Cl)cc2)CC1	3.1	-5	5	9	-18	3312	9
47	CCOc1ccccc1NC(=O)c1nnn(CC(=O)Nc2cc(C)cc(C)c2)c1N	5.3	3	5	4	-16	5897	1
48	CN(C)c1ccc(C=NNC(=O)CCc2nc3ccccc3[nH]2)cc1	-2.2	x	-1	-2	x	x	-1
49	Cc1cnc(NC(=O)CCCNC(=O)c2ccc(Cl)cc2)s1	0.0	x	4	0	-38	3112	3
50	Cc1nc2c(ccc3c2ccc2nc(C)sc23)s1	5.4	10	x	x	x	x	8

New compounds follow:
nr	Compound	Sa RN4220 lethal	BJeLR viability	Mtb hypoxia inh	Mtb hypoxia inh growth	PrP UTR inh	Autofluor counter	Sa ugtP lethal
51	O=C(OCCN=C1NS(=O)(=O)c2ccccc21)c1cccs1	6.3	-5	6	14	-29	4286	-1
52	CCn1c(=O)c2c(n3cnnc13)-c1ccccc1CC21CCCCC1	12	6	7	3	-8	2468	1
53	COc1cccc(-c2sc3ccc(OC)cc3c2-c2ccc(OCCN3CCCCC3)cc2)c1	23	x	x	x	-16	3769	38
54	COc1cccc(C(=O)c2sc(NC(C)C)nc2N)c1	1.9	-7	x	x	-5	2588	2
55	Cc1ccc(N(CC(=O)NC(C)C)C(=O)CCC(=O)Nc2nccs2)cc1C	2.2	-1	-2	6	-18	3440	14
56	O=C(Nc1ccc(F)cc1)c1nn(-c2ccccc2)c(=O)cc1Cl	0.3	5	2	2	-15	3285	4
57	Cc1ccc(C(=O)OCCOc2cccc(Cl)c2)cc1S(=O)(=O)N1CCOCC1	-0.3	-3	3	5	5	u	-17
58	Cc1noc(C)c1NC(=O)Nc1ccc2c(c1)C(=O)N(C(C)CO)CC(C)C(CN(C)S(=O)(=O)c1ccccc1)O2 (configuration not stated)	7.7	x	17	10	x	x	4
59	O=C(Nc1cc(C(F)(F)F)ccc1N1CCOCC1)c1ccc2ccccc2n1	6.1	-5	2	6	-37	19909*	-16
60	CCOc1cccc(/C=N/N2C(=O)CSC2=S)c1O	x	-8	x	x	-12	3179	x
61	CN(C)CCCn1c(SCc2c(Cl)cccc2Cl)nnc1-c1ccncc1	3.9	1	-3	-6	-12	x	15
62	COc1ccc(NC(=O)CC2C(=O)NCCN2C(=O)Nc2ccc(C(F)(F)F)cc2)cc1 (configuration not stated)	-2.2	-15	-7	-3	-2	5160	-3
63	NC(=O)C1CCN(S(=O)(=O)Cc2ccccc2Cl)CC1	-0.6	6	1	-9	-15	3406	2
64	Cc1ccc(N(C(=O)Cn2nnc(-c3cccs3)n2)C(C(=O)NC2CCCC2)c2ccncc2)cc1 (configuration not stated)	-1.8	-11	-3	-1	7	22784*	-1
65	Cc1ccccc1CN(c1ccc(C(=O)NCc2ccccn2)cc1)S(C)(=O)=O	6.8	-8	2	-6	-7	4142	4
66	CCn1c(SCC(=O)c2ccc(Cl)cc2)nnc1C(C)C	-1.0	1	-7	0	-41	4223	1
67	CCOc1ccc(-c2c(C(=O)NN=C(C)c3cccs3)nnn2-c2nonc2N)cc1	3.2	x	1	5	x	x	-1
68	CCOc1ccccc1C(=O)Nc1ccc2nc(N3CCN(c4ncccn4)CC3)cc(C)c2c1	11	x	16	46	x	x	-4
69	Cc1cc(C)cc(NC(=O)C[n+]2ccccc2)c1	2.7	4	-1	6	-30	4397	5
70	COc1ccccc1NCC(=O)N/N=C(\C)c1ccc(Br)s1	x	-12	x	x	-11	7476	x
71	COc1ccc(NC2CCCN(C(=O)c3csc(C(C)C)n3)C2)cc1 (configuration not stated)	2.1	0	9	8	-24	5462	7
72	COC(=O)CN1C(=O)N/C(=C/c2ccc(C)o2)C1=O	5.6	-6	-6	8	-30	4497	0
73	O=C(CCNS(=O)(=O)c1ccccc1)NCCCc1ccccc1	0.7	x	2	0	-8	5853	9
74	COc1ccccc1OCC(=O)Nc1ccncc1	4.9	-2	3	7	-18	3929	11
75	CCOC(=O)c1c(NC(=O)Nc2cccc(Cl)c2)sc(C)c1C	9.0	-1	-1	-2	-6	23460*	-5

Down the list, from the results shown.
Sa RN4220 lethal, nos. 2 to 13: 2.5, x, -0.2, -2.2, -2.1, -2.0, 0.6, 16, -0.8, 1.3, 9.4, 2.6

(listing goes on)
nr	Compound	Sa RN4220 lethal	BJeLR viability	Mtb hypoxia inh	Mtb hypoxia inh growth	PrP UTR inh	Autofluor counter	Sa ugtP lethal
76	CC(C(=O)O)n1cc(C#N)c(=O)[nH]c1=O (configuration not stated)	2.1	x	2	4	-52	3733	0
77	Cc1ccc2c(C)c(C(=O)N(C)C(C)c3ccon3)oc2c1C (configuration not stated)	x	10	x	x	-47	5806	x
78	CCOc1ccc(C(=O)NCc2ccco2)cc1OCC	5.4	-15	0	0	-9	u	8
79	CCCOc1ccc(C=NNc2ccccn2)cc1OC	2.5	x	-2	9	x	x	-4
80	CC(NC(=O)c1cccc(S(=O)(=O)N2CCN(Cc3ccccc3)CC2)c1)c1ccc(Cl)cc1 (configuration not stated)	2.2	x	-1	-2	-16	u	-2
81	Cc1ccc(N(C(=O)C2CCCO2)C2C=CS(=O)(=O)C2)cc1Cl (configuration not stated)	0.7	0	3	2	-6	10779	2
82	CCn1c(SCC(=O)Nc2ccc3c(c2)c2ccccc2n3CC)nnc1-c1cnccn1	-4.2	-4	-2	5	-10	11055	-8
83	CCCCn1c(CN2CCN(c3ccccc3)CC2)nc2c1c(=O)n(C)c(=O)n2C	5.1	8	-1	2	-6	5771	-9
84	Cc1ccc(S(=O)(=O)Nc2ccnc(-c3cccnc3)n2)cc1	6.4	x	-3	-1	-10	5143	3
85	CCN1C(=O)C2C(c3ccc(-c4ccc(F)cc4)c(OC)c3)N3CCC[C@@]3(C(=O)OC)C2C1=O (some centres not stated)	-1.7&5.5	x	13&12	2&9	x	x	3&-3
86	Cc1cccc(/C=N/NC(=O)Cc2ccc(Cl)cc2)c1O	x	2	x	x	-15	2909	x
87	CCCN1CC23C=CC(O2)C(C(=O)O)C3C1=O (configuration not stated)	0.2	1	x	x	18	6118	0
88	O=C(Nc1ccc2c(c1)OCO2)c1ccc[n+]([O-])c1	2.0	0	11	15	-14	9473	0
